Compound activity (PubChem)
VACV mCherry inh = qHTS for Stage-Specific Inhibitors of Vaccinia Orthopoxvirus: mCherry Reporter Primary qHTS. Vaccinia virus mCherry reporter infection, fluorescence; about a quarter of the inactives have no number. Potency, µM (doses to about 36.5 µM), without a hit: top-dose activity change, negative = inhibition, hits mostly inhibitors. 310,000 tested, 0.63% active; active = well fitted inhibition curve with a large enough effect; inconclusive = small, poorly fitted or top-dose-only effect; inactive = no such curve, though single readings can be large or run the other way; tested in A549 cells; also: nearly all actives have a fitted effect of over 35% in size; inactives centre near -10
VACV Venus inh = qHTS for Stage-Specific Inhibitors of Vaccinia Orthopoxvirus: Venus Reporter Primary qHTS; Vaccinia virus Venus reporter expression, fluorescence; Potency, µM (top dose mostly 36.5 µM), for inactives: at the top dose activity change, negative = inhibition, actives largely listed as inhibitors; 330,000 tested, 0.46% active; AID 720580, 2013; active means well fitted inhibition curve with a large enough effect; inconclusive means small, poorly fitted or top-dose-only effect; inactive means no such curve, though single readings can be large or run the other way; tested in A549 cells; also: nearly all actives have a fitted effect of over 30% in size; inactives centre near -10
Starred values were filed as active, the others as inactive; i = inactive; ? = inconclusive; · = no result given; & = joins results of further samples; [ ] = remark or other dose. % is scaled to controls: 0 for no effect and ±100 for the full control effect; potency is read from the fitted curve at half-maximal effect.

SMILES | VACV mCherry inh | VACV Venus inh
C/C=C(/C)C(=O)O[C@@H]1c2c(ccc3ccc(=O)oc23)O[C@@H]1C(C)(C)OC(C)=O | i | -22.8%
O=C(NCc1ccccc1)c1cc(C2CCCCN2C(=O)c2cccs2)on1 (stereo not drawn) | i | -12.0%
CC(Sc1ccc(S(=O)(=O)N2CCN(C)CC2)cn1)C(=O)NC1CCCC(C)C1C (stereo not drawn) | -23.6% | -15.9%
CCOc1ccc(-c2cc(NC(=O)Nc3ccccc3C(F)(F)F)c(C(=O)OC)s2)cc1 | -29.7% | -23.7%
CC1CCN(CCC(=O)Nc2nccs2)CC1 | -4.4% | -2.2%
O=C(Nc1ccccc1)c1ccc(S(=O)(=O)NCc2cccnc2)cc1 | -25.4% | -7.8%
CCOC(=O)c1ccccc1NC(=O)c1sc2ncn(Cc3cccc(F)c3)c(=O)c2c1C | -5.4% | -12.9%
Cn1c(SCc2ccccc2C#N)nc2ccccc2c1=O | -6.9% | -8.1%
COc1cc(/C=C2\SC(=S)N(NC(=O)c3ccccc3OC)C2=O)ccc1O | 223.2%[activator] | ·
COc1ccc(CCNC(=O)c2ccc(CS(=O)(=O)Cc3cccc(C)c3)o2)cc1OC | -13.4%&-22.0% | -4.5%&-20.1%
CCOc1ccc(NC(=O)Cn2nc(-c3ccncc3)ccc2=O)cc1 | 3.0% | 11.2%
Cc1c(C(=O)NCc2ccc(Cl)c(Cl)c2)sc(=O)n1Cc1ccc(S(C)(=O)=O)cc1 | -11.9% | -17.9%
COc1ccc(S(=O)(=O)N2CCCC(C(=O)NCc3ccccn3)C2)cc1Cl (stereo not drawn) | -6.0% | -12.8%
CCCCCCCNC(=O)CC(NS(=O)(=O)c1ccc(NC(C)=O)cc1)C(C)C (stereo not drawn) | -17.2% | -22.3%
CC(=O)Nc1ccc2nc(NC(=O)COc3ccccc3)sc2c1 | -9.8% | -2.3%
C/C(=N\NC(=O)C1CC1(C)c1ccccc1)c1ccco1 (stereo not drawn) | -10.3% | -8.6%
Cc1ccc(Cl)cc1N1CCN(C(=O)C2CCC(CNS(=O)(=O)c3cccs3)CC2)CC1 (stereo not drawn) | ? | ?
CC(=O)Nc1ccc(/C=C/c2ccccn2)cc1 | -8.7% | -8.8%
Cn1nnnc1SCC(=O)Nc1ccccc1-c1ccccc1 | · | -21.2%
Cc1c(Cl)cccc1NC(=O)CNc1cccc(C(F)(F)F)c1 | -5.9% | 8.9%
CCOc1cc(C#N)c(NC(=O)c2ccnn2C)cc1OCC | -11.4% | 5.2%
N#C/C(=C/c1ccc2c(c1)OCO2)C(=O)Nc1ccc(O)cc1 | -11.4% | -14.3%
CCOC(=O)C1CCCN(C(=O)c2cnn3c(C(F)F)cc(-c4ccc(C)cc4)nc23)C1 (stereo not drawn) | · | ?
CCc1cccc(C)c1NC(=O)COC(=O)C1CC(=O)N(CCc2ccc(OC)c(OC)c2)C1 (stereo not drawn) | -15.5% | 2.8%
Cc1ccc2nc(Cl)c(CN(Cc3cccs3)C(=O)C3CC3)cc2c1 | -11.5% | -21.4%

Two compounds drawn at random from those above:
SMILES | VACV mCherry inh | VACV Venus inh
CCOC(=O)c1ccccc1NC(=O)c1sc2ncn(Cc3cccc(F)c3)c(=O)c2c1C | -5.4% | -12.9%
C/C(=N\NC(=O)C1CC1(C)c1ccccc1)c1ccco1 (stereo not drawn) | -10.3% | -8.6%

New compounds follow
SMILES | VACV mCherry inh | VACV Venus inh
CCCNC(=O)C(Cc1cccc(Cl)c1)NC(=O)c1ccc(C#N)cc1 (stereo not drawn) | -22.2% | -15.5%
Cc1nn(-c2ccccc2)c(C)c1-c1nnc(-c2c(C)nn(-c3ccccc3)c2C)o1 | -12.0% | -1.2%
CCOc1ccc(NC(=O)CN2CCN(C3CCCCC3)C(=O)C2=O)cc1 | -8.1% | -4.6%
CCCCSCCCNC(=O)Nc1cccc(OC)c1 | i | -20.3%
Cc1c(C(N)=O)c(-c2ccccc2)nn1-c1ccccc1 | -11.6% | -7.6%
COC(=O)c1ccccc1NC(=O)CSc1nnc(-c2cccc(NC(C)=O)c2)n1C | · | -27.1%
CSc1ncccc1C(=O)OCC(=O)Nc1ccc(C)c(S(=O)(=O)N2CCOCC2)c1 | -22.1% | -12.7%
O=c1cc(-c2ccc(O)c(O)c2)oc2ccccc12 | i | -4.8%
CCN1C(=O)CC(NC2CCN(C(=O)c3ccc(F)cc3)CC2)C1=O (stereo not drawn) | -8.8% | -7.7%
CCNc1cc(Nc2c(C)n(C)n(-c3ccccc3)c2=O)c([N+](=O)[O-])c2nonc12 | i | -9.7%
Cn1ccc2c(-c3ccc(CO)cc3)cc3c(c21)C1CCC3C1 (stereo not drawn) | 25.4% | 5.3%
Cc1ccc(C(NC(=O)C2CCN(Cc3ccc(Oc4ccccc4)cc3)CC2)c2ccccn2)cc1 (stereo not drawn) | i | -9.5%
Nc1c(-c2nc(-c3cccs3)no2)nnn1-c1cccc(Cl)c1 | 0.7% | -10.6%
CCOC(=O)c1cnc(C(C)(C)C)[nH]c1=O | · | 1.5%
Cc1cnc(CNc2nc(-c3ccc(C(=O)N(C)C)cc3)nc3ccccc23)cn1 | -1.3% | 1.6%
CCCCn1c(=O)c(C(=O)Nc2ncccc2C)c(O)c2ccccc21 | -5.8% | 0.3%
COc1ccc(S(=O)(=O)N(CC(=O)NCCSc2ccccc2)c2ccc(C)cc2)cc1 | -20.2% | -4.1%
COc1cc(NC(=S)N2CCCC(C)C2)cc(OC)c1OC (stereo not drawn) | -2.9% | -9.2%
CCOC(=O)c1ccccc1NC(=O)Cn1c(=O)n(Cc2nc(-c3ccccc3)no2)c(=O)c2ccccc21 | -14.1% | -6.0%
CCCN=C1N(CC)C[C@@H]2[C@@H]3C(=O)N(C)C(=O)[C@@H]3[C@](CC)(C(=O)OC)N12 | i | 0.6%
O=C(NNC(=O)c1ccccc1O)c1ccc(-c2ccc([N+](=O)[O-])cc2)o1 | 10µM* | ?
O=S(=O)(c1ccc(Cl)s1)N1CCN(CCc2ccccc2)CC1 | -26.1% | -10.8%
CCCCNC(=S)N1CCC(Cc2ccccc2)CC1 | i | -6.9%
CC(Nc1nc(-c2ccc(Cl)cc2)cs1)c1nc2cc(Cl)c(N3CCCCC3)cc2n1CCOCCO (stereo not drawn) | -20.4% | ?
CCOC(=O)CC(NC(=O)c1ccco1)c1ccccc1Cl (stereo not drawn) | -1.2% | -11.6%

The listing continues:
SMILES | VACV mCherry inh | VACV Venus inh
CCCn1c(SCC(=O)c2ccc3c(c2)OCCO3)nnc1C(C)C | i | -15.8%
CC(=O)N1CCc2cc(S(=O)(=O)CCC(=O)Nc3cccc(F)c3)ccc21 | -5.5% | 5.3%
CN(C(=O)CCc1nc(-c2ccccc2F)no1)c1ccccc1 | -3.5% | -5.7%
COc1cccc(N2C(=O)C3CCCN3C2=S)c1 (stereo not drawn) | 17.5% | -14.4%
COc1ccccc1NC(=O)CCC(=O)N(Cc1ccc(OC)c(OC)c1)c1nccs1 | -15.9% | -6.5%
O=C(C[C@@H]1CC[C@H](NC(=O)c2ccc3c(c2)OCO3)[C@@H](CO)O1)NCc1ccc(F)cc1 | -3.8% | -6.9%
NC(=O)C1CCN(C(=O)CNC(=O)c2ccc(F)cc2)CC1 | -16.5% | -7.4%
COc1cc(C2=NOC(C(=O)NCc3cccnc3)C2)cc(OC)c1OC (stereo not drawn) | -5.0% | -17.6%
CCOC(=O)C1CCCN(C(=O)c2ccc(OC)cc2)CC1 (stereo not drawn) | i | 10.9%
Cc1cccc(C)c1NC(=O)CSc1ccc([N+](=O)[O-])cn1 | -11.2% | -0.5%
O=C(CCSc1nnnn1-c1ccccc1)N1CCOCC1 | -4.1% | -7.2%
O=C(O)COc1ccc(NC(=O)c2cccs2)cc1 | -22.3% | -2.3%
CCN(CC)c1ccc(N=Cc2c(O)n(-c3ccc(Cl)cc3)c(=O)[nH]c2=O)cc1 | i | -12.7%
NC12CC3CC(C1)CC(CC(=O)O)(C3)C2 | 9.4% | 7.9%
O=C(CC1Oc2ccccc2NC1=O)NCCCN1CCN(C2CCCCC2)CC1 (stereo not drawn) | 5.7% | 7.2%
Cc1ccc(NC(=O)/C(=C\c2ccco2)NC(=O)c2ccco2)cc1 | -27.2% | -2.2%
C=CCNC(=O)/C(C#N)=C/c1cc(Br)ccc1OC | -14.8% | -5.3%
COc1ccc(CNC(=O)c2cc3cccc(OC)c3oc2=O)cc1 | 0.4% | 10.4%
Cc1cc(C)n(-c2nc3ccccc3c(=O)n2OCC#N)n1 | 2.51µM* | ?
COc1ccc(N(CC(=O)NC2CCS(=O)(=O)C2)S(=O)(=O)c2cc(C)ccc2C)cc1 (stereo not drawn) | -23.2% | -2.3%
CC1(C(=O)NS(=O)(=O)c2cccc(Cl)c2)CCN1C(=O)Cc1cccs1 (stereo not drawn) | i | -12.1%
CCOC(=O)C(CC)Sc1nc2c(c(=O)[nH]c(=O)n2C)n1CCc1ccccc1 (stereo not drawn) | -10.6% | -8.8%
C=CCOc1ccc(C[C@H](N)C(=O)NC[C@H]2O[C@@H](n3cc(C)c(=O)[nH]c3=O)C[C@@H]2O)cc1 | i | -11.7%
CC1CCN(S(=O)(=O)c2ccc([N+](=O)[O-])cc2)CC1 | -14.9% | -7.9%
CCNc1nc(ON=C(C)C)nc(N(C)C)n1 | -1.5% | -12.5%

Quoted from the listing.
VACV mCherry inh result of O=C(C[C@@H]1CC[C@H](NC(=O)c2ccc3c(c2)OCO3)[C@@H](CO)O1)NCc1ccc(F)cc1 is entered as -3.8%
VACV mCherry inh result of NC(=O)C1CCN(C(=O)CNC(=O)c2ccc(F)cc2)CC1 is entered as -16.5%

(list continues)
SMILES | VACV mCherry inh | VACV Venus inh
COC(=O)C(O)C1C(C)(C)C(OC(C)=O)C2CC3=C4CC(=O)OC(c5ccoc5)[C@]4(C)CCC3[C@@]1(C)C2=O (stereo partly drawn) | -19.5% | -4.9%
COc1ccc2c(c1)C=C([C@@H]1C[C@H]3CN(c4ccccc4)C(=O)[C@]34CCCN14)CO2 | -24.4% | -15.5%
CCCCn1c(N)c(N(CCOC)C(=O)CSc2nc3ccc(C)cc3[nH]2)c(=O)[nH]c1=O | -9.3% | -1.1%
OC(c1ccc(-c2ccccc2)cc1)c1ncc(-c2ccccc2)[nH]1 (stereo not drawn) | -3.5% | -3.5%
COc1ccc(C(=O)NCCc2nnc(SCC(=O)Nc3ccccc3)n2C)cc1 | · | -22.8%
Cc1nn(Cc2ccc(C(=O)N3CCN(C(=O)c4ccco4)CC3)o2)c(C)c1[N+](=O)[O-] | -3.4% | -15.7%
COc1cccc(OCCNCc2ccccc2)c1 | -9.1% | -12.5%
CCOC(=O)CSc1nc(-c2ccccc2)nc2c1oc1ccccc12 | -10.6% | -0.5%
COc1ccc(C=C2SC(=O)NC2=O)cc1OC | -0.8% | 0.0%
Cc1cccc(Cn2c(SCc3ccc(C(=O)N4CCCCCC4)cc3)nc3ccncc32)c1 | ? | ?
COc1ccccc1NC(=O)CCCC(=O)OCC(F)(F)C(F)F | i | -9.7%
Cn1c(N)c(C(=O)COC(=O)Cc2ccccc2F)c(=O)n(C)c1=O | -1.2% | -0.5%
O=C(NCc1ccccc1Cl)c1ccc(NC2=NC3CS(=O)(=O)CC3S2)cc1 (stereo not drawn) | i | -20.2%
COc1cc(C=NO)nc(-c2ccccn2)c1 | ? | ?
Cc1ccc(C(=O)Nc2ccc3ccccc3n2)cc1 | -6.7% | -10.5%
CC(NS(=O)(=O)c1ccccc1)C(=O)NCCc1ccccn1 (stereo not drawn) | 3.3% | -12.2%
COc1cc(C(=O)NCC2CCCO2)ccc1OCc1ccc(Cl)cc1Cl (stereo not drawn) | i | -7.8%
COc1ccccc1OS(=O)(=O)c1ccc(NC(C)=O)cc1 | -10.1% | -2.8%
CCC(C)NCCCCOc1ccc(Cl)cc1C (stereo not drawn) | i | -16.2%
NC(=S)N/N=C/c1cn(-c2ccccc2)nc1-c1cccnc1 | ? | ?
Nc1ncnc2c1ccn2[C@H]1CN(Cc2ccc3c(c2)OCO3)C[C@@H](COC(=O)c2ccccc2)O1 | -6.3% | -2.1%
COc1ccccc1C(=O)Nc1ccc(N2CCCCC2)cc1 | -21.0% | -4.9%
Fc1ccc2nc(Nc3ccccc3)sc2c1 | -4.2% | -21.1%
Cc1ccc(C(=O)NC2=NCCS2)cc1Cl | i | -5.3%
COc1cccc(/C=N/NC(=O)C(=O)N/N=C/c2cccc(OC)c2OC)c1OC | -7.0% | 4.7%

The listing continues.
SMILES | VACV mCherry inh | VACV Venus inh
COc1cc(S(=O)(=O)NC2CCSc3ccccc32)ccc1NC(C)=O (stereo not drawn) | -13.6% | -7.6%
Cc1ccc2nc(-c3ccc(Cl)c(NC(=O)COc4cccc(C)c4C)c3)oc2c1 | -9.9% | -5.8%
Cc1ccc(NC(=S)NNC(=S)NCc2ccccc2)cc1 | ? | -26.8%
Cn1nc(C(=O)OCc2ccc(F)cc2)c2ccccc2c1=O | i | -19.4%
O=S(=O)(Cc1ccccc1)NCC1CCCN(Cc2ccc(F)c(F)c2)C1 (stereo not drawn) | i | -10.7%
COc1cc(NC(=O)CSc2nnc3ccccn23)cc(OC)c1OC | -23.4% | -10.5%
C=C1SC(Nc2c(C)cccc2C)=NC12CCCCC2 | -4.1% | -1.1%

4 of the compounds above, in CSV form.
structure,VACV mCherry inh,VACV Venus inh
COc1cc(S(=O)(=O)NC2CCSc3ccccc32)ccc1NC(C)=O (stereo not drawn),-13.6%,-7.6%
Cn1nc(C(=O)OCc2ccc(F)cc2)c2ccccc2c1=O,i,-19.4%
Cc1ccc(NC(=S)NNC(=S)NCc2ccccc2)cc1,?,-26.8%
C=C1SC(Nc2c(C)cccc2C)=NC12CCCCC2,-4.1%,-1.1%
